# Screens as filed in PubChem BioAssay.
# GIV-Gai inh: inhibitors of GIV GBA-motif binding to rat Galpha-i3. P08753. Galpha-i3/FITC-GIV peptide fluorescence polarization, 90 min; stronger effect = lower value; scaled: aluminum fluoride 0%, vehicle 100%. percent of control (FP), % (concentration not given with the values). 210,000 compounds, 0.42% hits. AID 1224905;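 active means replicate mean at 85% of control or lower, very high polarization wells dropped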;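 further: wells of about 15 µL received 100 nL stock; the first replicate is given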
# Target sequence (P08753 whole entry, looked up): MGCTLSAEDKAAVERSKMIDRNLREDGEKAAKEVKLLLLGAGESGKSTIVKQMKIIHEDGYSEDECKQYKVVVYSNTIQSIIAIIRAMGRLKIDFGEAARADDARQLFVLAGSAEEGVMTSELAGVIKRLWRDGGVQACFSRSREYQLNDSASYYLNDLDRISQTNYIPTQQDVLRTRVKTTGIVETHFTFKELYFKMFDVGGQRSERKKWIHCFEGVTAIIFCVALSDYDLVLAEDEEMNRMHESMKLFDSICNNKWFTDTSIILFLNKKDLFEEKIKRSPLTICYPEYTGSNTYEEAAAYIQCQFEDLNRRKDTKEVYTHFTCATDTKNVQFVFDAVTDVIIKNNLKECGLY
# Sa growth inh: blocks Staphylococcus aureus growth; S. aureus RN4220 growth, OD600, 20 h, 42 °C; stronger effect = lower value; relative growth, % (no concentration beside the values); 170,000 compounds, 0.53% hits; AID 720641;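 active means growth at 42 °C up to 50% and 20 or more points under that at 30 °C, or under 10% at both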;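 further: 300 nL library stock went into each well; scaled to the means of positive and negative controls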
# HCMV NEC inh: cytomegalovirus nuclear egress complex inhibition; HTRF UL50-UL53 interaction, normalized percent inhibition; AID 1918969; inhibition, % (concentration not given with the values); 190,000 compounds, 0.15% hits;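 active means both replicates at 50% or more, plus weaker picks with an unusually low signal ratio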;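 further: stock transfer was 100 nL into about 20 µL; 0% = negative control wells and 100% = wells with untagged competitor protein; inactives centre near -12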
# Sa growth inh second temp: also measured in Sa growth inh; calls as there; relative growth, %; measured here: growth at 30 °C;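 optical density after 20 h as mean of two plates; 100% = untreated growth and lower means inhibition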
# * = called active by the depositor; . = no result given; & = joins results of further samples.
SMILES,GIV-Gai inh,Sa growth inh,Sa growth inh second temp,HCMV NEC inh
Cc1cccc(CS(=O)(=O)Cc2ccc(C(=O)NCCCN3CCC(C)CC3)o2)c1,102.8,92.5,85.9,4.2
O=S(=O)(c1cccc(F)c1)N1CCN(c2nc3ccccc3n3cccc23)CC1,100.4,.,.,-37.5
COC(=O)C1=CN(Cc2ccc(C)cc2)C=C(C(=O)OC)C1c1ccc(C)s1,96.6,99.4,82.6,.
COc1ccc(C(=O)N2CCCCC2CCN2CCCCC2)cc1 (stereo not given),103.5,92.2,91.5,-16.3
CCOC(=O)C1=C(CNCc2ccccc2)NC(=O)NC1c1ccc(C)cc1 (stereo not given),105.4,100.1,92.8,-24.3
CCCNC(=O)C1CCN(S(=O)(=O)c2ccccc2)CC1,101.3,84.4,105.6,8.6
Cc1cccc(N2CC(O)=C(c3nc4ccccc4n3C)C2=N)c1C,98.8,.,.,4.8
COC(=O)CSc1nnc(SC)n1C,98.3,100.0,88.5,-7.0
Cc1nc2c(sc3nc4c(cc32)COC(C)(C)C4)c(=O)n1Cc1ccccc1,99.6,86.3,87.2,6.8
CC(C)CCn1nnc2sc(-c3ccccc3)cc2c1=O,107.5,104.5,87.7,-24.6
COc1ccc(NC(=O)CSc2nc(-c3ccc(OC)cc3)cc(=O)[nH]2)cc1,108.5,108.9,99.9,-12.3
C=CCc1c(C)[nH]c2ccc(N)cc2c1=O,.,108.1,82.4,-15.5
CCCCN(CC)CCNC(=O)CCn1cnc2onc(-c3ccc(F)cc3)c2c1=O,110.5,87.6,98.3,.
O=C(CCS(=O)(=O)c1ccc(F)cc1)N1CCCC1c1nc2ccccc2s1 (stereo not given),.,95.0,94.7,-14.2
CCN(CC)C(=O)Oc1nnc(SC(C)C)n1-c1ccc(Cl)c(Cl)c1,103.7,103.5,88.4,-11.3
CCCCN(CC)CCNC(=O)c1cc2c(=O)oc3ccc(C)cc3c2s1,110.6,107.6,89.0,-109.3
CCc1ccc(C(=O)Nn2cnc3ccccc3c2=O)cc1,106.7,96.3,100.5,-13.3
CC1CCN(c2nc3ccc(C(=O)NCCc4ccc(S(N)(=O)=O)cc4)cc3s2)CC1,101.4,91.8,86.8,-27.1
CCCC(=O)NCC1(N2CCOCC2)CCCCC1,98.2,.,.,-21.8
O=c1c2n[nH]c(=S)n2ccn1-c1ccc(F)cc1,102.0,.,.,-37.2

# The last seven entries of the section before come first, to join the parts:
SMILES,GIV-Gai inh,Sa growth inh,Sa growth inh second temp,HCMV NEC inh
O=C(CCS(=O)(=O)c1ccc(F)cc1)N1CCCC1c1nc2ccccc2s1 (stereo not given),.,95.0,94.7,-14.2
CCN(CC)C(=O)Oc1nnc(SC(C)C)n1-c1ccc(Cl)c(Cl)c1,103.7,103.5,88.4,-11.3
CCCCN(CC)CCNC(=O)c1cc2c(=O)oc3ccc(C)cc3c2s1,110.6,107.6,89.0,-109.3
CCc1ccc(C(=O)Nn2cnc3ccccc3c2=O)cc1,106.7,96.3,100.5,-13.3
CC1CCN(c2nc3ccc(C(=O)NCCc4ccc(S(N)(=O)=O)cc4)cc3s2)CC1,101.4,91.8,86.8,-27.1
CCCC(=O)NCC1(N2CCOCC2)CCCCC1,98.2,.,.,-21.8
O=c1c2n[nH]c(=S)n2ccn1-c1ccc(F)cc1,102.0,.,.,-37.2
O=C(Nc1ccccc1-c1nc2ccccc2s1)c1ccc([N+](=O)[O-])cc1,102.3,.,.,6.0
COc1ccc(N(C(C)C(=O)N=Nc2c(O)[nH]c3ccccc23)S(C)(=O)=O)cc1 (stereo not given),98.4,102.2,98.2,-69.0
Cc1ccc2cnn(CC(=O)NCCN3CCOCC3)c2c1,107.4,107.4,101.9,-0.1
CC(C)(C)c1ccc(C(=O)NCC(c2ccco2)S(=O)(=O)c2ccccc2)cc1 (stereo not given),103.2,79.4,92.9,.
Cc1nc(CC(=O)Nc2cc(Cl)ccc2C)cs1,96.4,93.7,89.1,-3.5
O=C(Cn1c(=O)n(-c2ccccc2Cl)c(=O)c2sc3ccccc3c21)NC1CCCC1,102.3,104.7,85.6,-41.0
CCc1ccccc1Nc1nn2c(=O)c3ccc(C(=O)NCC4CCCO4)cc3nc2s1 (stereo not given),105.4,85.5,69.8,-29.0
Cc1cccn2cc(CNC(=O)CC3CCCC3)nc12,95.2,109.3,80.0,.
OCCNC(=S)Nc1ccc(Cl)cc1,110.6,96.3,88.7,-2.8
CCc1ccc(Nc2cc(=O)oc3ccccc23)cc1,107.7,95.8,64.1,.
O=C(CCc1c(-c2ccc(F)cc2)[nH]c2ccc(F)cc12)N1CCN(C2CCS(=O)(=O)C2)CC1 (stereo not given),.,70.2,81.9,-1.8
NNc1ccc2nnc(C(F)(F)F)n2n1,98.4,90.0,79.9,-10.6
COc1ccc(-c2cc(C(=O)Nc3cccc(C(C)=O)c3)c3ccccc3n2)cc1OC,105.6,.,.,-13.3
O=C1c2oc3ccccc3c(=O)c2C(c2ccc(O)cc2)N1Cc1ccccc1 (stereo not given),106.0,102.1,99.0,0.4
Cc1ccc(Cn2cc(CCCC(=O)N3CCCC3)c3ccccc32)cc1,98.0,96.5,82.6,.
COc1ccccc1Nc1cc(C(=O)NCCN2CCOCC2)c2ccccc2n1,109.5,93.8,86.8,-30.2
COc1ccccc1C(=O)Nc1ccc2nc(C)sc2c1,.,93.5,91.2,11.0
CCN(CC)c1ccc(N=Cc2ccc3ccccc3n2)cc1,.,105.9,87.8,-5.1
Cc1cccc(CC(=O)N2CCN(c3ccccc3)CC2)c1,103.5,102.8,100.0,-15.6
CC1CCCCN1C(=O)Nc1cn(C)c(=O)c2ccccc12 (stereo not given),98.8&104.2,87.5,88.5,-13.2&-7.5
O=C(O)CCC(C(=O)O)N1C(=O)c2ccccc2C1=O (stereo not given),105.5,.,.,-4.1
CCOc1cc(/C=C2\NC(=S)N(c3ccc(OC)cc3)C2=O)ccc1OCc1cccc(F)c1,102.7,.,.,-1.8
CCN(c1ccccc1)S(=O)(=O)c1ccc(Cl)nc1,.,82.7,89.6,-18.5
CCn1c2ccccc2c2cc(NC(=O)c3ccccc3C)ccc21,99.6,112.9,86.8,.
Cc1ccc2cc3c(nc2c1)N(C(=O)c1ccc(S(=O)(=O)N(C)C)cc1)CC3,104.8,.,.,9.6
CCc1ccc(NC(=O)Cn2c(=O)n(-c3cc(C)cc(C)c3)c(=O)c3oc4ccccc4c32)cc1,98.6,101.8,98.9,.
CCOc1ccc(NC(=O)Cn2c(=O)n(-c3ccc(C)cc3)c(=O)c3cc(OC)c(OC)cc32)cc1,104.7,108.4,88.5,-3.3
Cc1ccc(C2=NN(C(=O)CSc3ccccn3)C(c3ccco3)C2)o1 (stereo not given),.,81.0,93.1,-35.3
Cc1cccc(-c2nc3c4c(-c5ccccc5)c(-c5ccccc5)oc4ncn3n2)c1,103.9,99.5,94.3,15.7
CC(=O)c1ccc(N2CCN(C(=O)CCS(=O)(=O)c3ccc4c(c3)oc(=O)n4C)CC2)cc1,111.1,95.8,82.8,.
CCC(c1nnnn1CCOC)N1CCN(c2cccc(C(F)(F)F)c2)CC1 (stereo not given),104.1,70.6,83.0,4.3
O=C(CSc1nnc2c(n1)[nH]c1ccccc12)Nc1ccccc1,100.8,109.6,90.1,-36.0
Cc1cc2c(cc(C(=O)NCCCN3CCOCC3)n2Cc2ccc(Cl)cc2)o1,106.7,97.2,88.8,-16.0
CCNc1nc(OC)nc(N2CCN(c3ccc(F)cc3)CC2)n1,105.0,108.2,87.1,-12.5
COC(=O)c1cccc(NS(=O)(=O)c2cccs2)c1,104.4,98.2,99.4,.
CCCCSc1nnc2n1CCN2c1ccc(F)cc1,103.5,.,.,4.2
CC(C)(C)OC(=O)N1CCCN(S(=O)(=O)c2cccc(C(F)(F)F)c2)CC1,100.0,102.4,93.8,-139.2
CC1=C(C)C/S(=N\S(=O)(=O)c2ccc(Cl)cc2)N(S(=O)(=O)c2ccc(Cl)cc2)C1 (stereo not given),94.9,46.1,5.1,-26.3
CCOC(=O)c1ccc(NC(=O)CNC(=O)c2ccc(Cl)cc2)cc1,.,108.5,73.3,-22.5
CC1CCCCC1NC(=O)c1cccc(NC2=NC3CS(=O)(=O)CC3S2)c1 (stereo not given),104.4,99.3,91.7,2.3
COC(=O)c1cc(OC(=O)c2cc(OC)cc(OC)c2)cc(C(=O)OC)c1,.,97.9,106.7,6.8
CCc1ccc(OCCSc2nc(-c3ccco3)nc3cc(=O)[nH]n23)cc1,105.5,87.0,84.5,-30.7
CCOC(=O)c1cnn(-c2ccccc2)c1NC(=O)CSc1nc2ccc(OCC)cc2s1,97.6,.,.,-9.3
CCN1CCC(N(Cc2ccc3c(c2)OCO3)C(=O)Nc2cc(F)ccc2F)CC1,102.5,75.9,86.2,.
O=C(O)CCC(=O)NC1CCCCCCC1,99.1,99.3,96.9,-7.8
Cc1noc(C)c1S(=O)(=O)Nc1ccc(C(=O)Nc2ccc(C(C)C)cc2)cc1,108.4,98.0,54.1,-5.5
O=C(NCc1ccc2c(c1)OCO2)c1cccc(N2C(=O)CCS2(=O)=O)c1,103.3,.,.,-28.3
COc1ccc(CCNC(=O)c2nc(-c3ccc(Cl)cc3)n3c2CCCCC3)c(OC)c1,102.6,121.1,95.3,.
CCOc1ccc(NC(=O)N2CCC(CN3CCC(C)CC3)CC2)cc1,103.5,91.0,88.1,.
CCC(=O)Nc1ccc(-c2nnc(C(F)(F)F)o2)cc1C,106.3,106.9,89.4,-5.4

# (listing goes on)
SMILES,GIV-Gai inh,Sa growth inh,Sa growth inh second temp,HCMV NEC inh
NC(=O)Cn1c(CSc2nc3ccccc3n2CC(N)=O)nc2ccccc21,96.8,.,.,-18.4
O=C(NC1CCCCC1)c1ccc(Cn2cnc3cccnc32)cc1,109.5,.,.,2.7
Cc1c(C(=O)N(C)C2CCCCC2)sc2ncnc(N3CCN(C)CC3)c12,105.5,.,.,-25.6
O=C(O)CCC(=O)Nc1ccc2c(c1)oc1ccccc12,105.0,199.3,103.4,52.5*
CC1(C)CC(=O)c2cc(C(=O)N3CCN(c4ccc(Cl)cc4)CC3)c(=O)n(-c3ccc(Cl)cc3)c2C1,101.6,.,.,-17.4
CC(=O)N1CCCc2cc(S(=O)(=O)N3CCCC(C(=O)Nc4ccc(F)cc4F)C3)ccc21 (stereo not given),98.8,83.3,93.8,.
COc1ccc(-c2cc3c(N4CCC(C(=O)N5CCN(c6ccccc6)CC5)CC4)nccn3n2)cc1,103.3,.,.,-25.5
N#Cc1c(-c2cccs2)cc(-c2cccs2)nc1SCc1cccnc1,98.4,75.3,96.9,-48.8
COc1cccc(NC(=O)c2cnc3sccn3c2=O)c1,98.9,.,.,-7.8
O=C(Nc1cnn(Cc2ccc(F)cc2)c1)c1noc2c1CCCC2,101.7,112.4,99.3,-4.9

# Quoted at random: 3 entries already listed, in no set order.
SMILES,GIV-Gai inh,Sa growth inh,Sa growth inh second temp,HCMV NEC inh
O=C(O)CCC(=O)Nc1ccc2c(c1)oc1ccccc12,105.0,199.3,103.4,52.5*
CC(=O)N1CCCc2cc(S(=O)(=O)N3CCCC(C(=O)Nc4ccc(F)cc4F)C3)ccc21 (stereo not given),98.8,83.3,93.8,.
COc1ccc(-c2cc3c(N4CCC(C(=O)N5CCN(c6ccccc6)CC5)CC4)nccn3n2)cc1,103.3,.,.,-25.5

# (list continues)
SMILES,GIV-Gai inh,Sa growth inh,Sa growth inh second temp,HCMV NEC inh
CSc1nc2cc(C)nn2c(-c2ccc(C(C)(C)C)cc2)c1C#N,104.9,102.6,90.9,-15.4
O=c1c2ccccc2c(-c2nc(-c3ccccn3)no2)nn1-c1ccccc1,114.0,.,.,-31.6
COc1ccccc1C(=O)Nc1ccc2nc(SCC(=O)N3CCCC3)sc2c1,106.8,103.8,86.7,-21.7
CCn1nnc(NC(=O)C(C)(c2ccccc2)c2ccccc2)n1,100.0,95.7,85.3,5.6
O=C(NC1CCN(Cc2ccccc2)CC1)c1cc(-c2ccccc2)n[nH]1,102.5,91.7,102.9,19.8
CC(C)(C)C(=O)CSc1nc2ccsc2c(=O)n1Cc1ccc(F)cc1,100.1,106.1,74.3,-1.7
O=C1N(c2ccc3c(c2)OCCO3)C(c2ccccc2)C1(F)F (stereo not given),.,102.5,70.6,-20.9
Cc1cc2c(cc1C)CN(c1cccc(C(=O)N/N=C/c3ccco3)c1)C2,108.8,112.5,69.7,-24.6
C=CCNc1oc(COc2ccc(C)cc2)nc1C#N,100.3,80.0,84.0,-8.3
CN(C)S(=O)(=O)c1ccc(C(=O)Nc2ccc(OCC(=O)N3CCOCC3)cc2)cc1,100.0,104.5,90.2,-20.1
COc1ccc(C2CC(c3c(O)n(C)c(=O)n(C)c3=O)=NN2)cc1 (stereo not given),94.1,.,.,-15.4
CNS(=O)(=O)c1ccc2c(c1)N(C(C)=O)CCCS2,102.4,.,.,-15.8
COc1ccc(C2C3=C(CC(c4ccc(O)c(OC)c4)CC3=O)Nc3onc(C)c32)cc1O (stereo not given),102.5,.,.,-18.3
CC(C)(O)C#Cc1ccccc1C(=O)NC(CC(N)=O)C(=O)O (stereo not given),101.5,96.4,96.5,-9.0
CN(C)S(=O)(=O)c1cccc(C(=O)C2=C3SC=C(c4ccccc4)N3CC2)c1,.,90.4,87.8,-62.4
O=C(O)c1ccccc1S(=O)c1ccccc1CCO (stereo not given),94.2,95.6,91.9,-9.9
CCCCN1C(=O)CN(C2CCCCCC2)C(=O)C1c1ccc(OCC)c(OC)c1 (stereo not given),98.2,109.6,84.9,.
